# Compound activity: PubChem BioAssay, National Center for Advancing Translational Sciences (NCATS)
# PINK1 expr mod: A Quantitative High throughput Screen to Identify Chemical Modulators of PINK1 Expression; Potency, µM (highest dose often 76.6 µM), for the others: at the top dose activation (PINK1 increase), hits mostly activators; 410,000 tested, 0.2% active; AID 624263, 2012; PINK1 immunofluorescence, high-content cytometry, 24 h; active = well fitted activation curve with a large enough effect; inconclusive = small, poorly fitted or top-dose-only effect; inactive = flat fitted curve, though single readings scatter; cell line not stated here;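 further: % of control where 0% means no effect; nearly all actives have a fitted effect of over 65% in size; a mitochondrial uncoupler was the plate control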
#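 PINK1 protein, normally rapidly degraded, was detected by immunofluorescence after 24 hour compound treatment of a stable cell line. Titration data (5 concentrations) came from laser-scanning cytometry, with CCCP-treated wells as controls.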
# Starred values were filed as active, the others as inactive; ? = inconclusive; & = joins results of further samples. Potency means the concentration at half of the fitted maximal effect. An excerpt; count on the stated rates, not on these rows.
# The first two records (preview)
SMILES,PINK1 expr mod
COc1cc(C(=O)N2CCc3c([nH]c4ccccc34)C2c2ccc(F)cc2)cc(OC)c1OC (stereo unspecified),1.5%
Cc1nc2cccnc2n1-c1cccc(C(=O)N2CCN(c3cccc(Cl)c3)CC2)c1,1.0%

# This part in full (from the top)
SMILES,PINK1 expr mod
COc1cc(C(=O)N2CCc3c([nH]c4ccccc34)C2c2ccc(F)cc2)cc(OC)c1OC (stereo unspecified),1.5%
Cc1nc2cccnc2n1-c1cccc(C(=O)N2CCN(c3cccc(Cl)c3)CC2)c1,1.0%
COc1cccc(OC)c1-c1nn2c(-c3n[nH]c4c3CCC4)nnc2s1,2.0%&0.8%
CC1=C/C(=C\c2ccc(N(C)C)cc2)c2ccccc21,9.6%
COc1cc(OC)cc(C(=O)Nc2cc(-c3nc4cc(Cl)ccc4o3)ccc2Cl)c1,?
COc1ccc(CNC(=O)c2nc(SC(C)C)ncc2Cl)cc1,0.7%
Cc1ccc(-n2ncc(C(=O)NCCN3CCN(C)CC3)c2C2CCN(C(=O)OC(C)(C)C)CC2)cc1C,-0.5%
COc1ccc(S(=O)(=O)c2c(SC)nn(CC(=O)Nc3ccc(C)c(Cl)c3)c2N)cc1,?
Cc1cccc(NC(=O)CCS(=O)(=O)c2ccc3c(c2)n(C)c(=O)c(=O)n3C)c1C,-0.3%
COC(=O)c1cc(CNC(=O)c2ccc3ncccc3c2)cc(NC(=O)c2ccccc2Cl)c1,0.4%
COc1ccc(NC(=O)C(=O)Nc2ccc3nc4n(c(=O)c3c2)CCCCC4)c(OC)c1,6.3%
COc1ccccc1NC(=O)C1=C(C)Nc2c(C(=O)Nc3cccc(C)c3)cnn2C1c1ccccc1C (stereo unspecified),9.2%
Cc1cccc(NC(=O)Cn2c(=O)n(CCCCCC(=O)NCc3ccccc3)c(=O)c3sccc32)c1,6.0%
COc1ccc(CNC(=O)Cc2c(C)c3cc4c(C)coc4c(C)c3oc2=O)cc1OC,1.5%
CCC1CN(CCNC(=O)c2cccc(C)n2)Cc2cc(OC)ccc2O1 (stereo unspecified),0.5%

# Part of the list above, with each value named:
SMILES: COc1ccc(NC(=O)C(=O)Nc2ccc3nc4n(c(=O)c3c2)CCCCC4)c(OC)c1
  PINK1 expr mod: 6.3%
SMILES: COc1ccccc1NC(=O)C1=C(C)Nc2c(C(=O)Nc3cccc(C)c3)cnn2C1c1ccccc1C (stereo unspecified)
  PINK1 expr mod: 9.2%
SMILES: Cc1cccc(NC(=O)Cn2c(=O)n(CCCCCC(=O)NCc3ccccc3)c(=O)c3sccc32)c1
  PINK1 expr mod: 6.0%
SMILES: COc1ccc(CNC(=O)Cc2c(C)c3cc4c(C)coc4c(C)c3oc2=O)cc1OC
  PINK1 expr mod: 1.5%

# (more compounds)
SMILES,PINK1 expr mod
Cc1noc2ncnc(N3CCCC(C(=O)Nc4cccc(C(F)(F)F)c4)C3)c12 (stereo unspecified),-1.1%
COc1ccc(-c2cnn3c(C)cc(C)nc23)cc1OC,-1.8%
COc1ccc(-c2noc(CSc3nnc(-c4ccccc4)n3-c3ccc(F)cc3)n2)c(OC)c1,-0.4%
Cn1c(=O)[nH]c(=O)c2c1nc1n(CCO)c(-c3ccccc3)cn21,-0.3%
O=C(Nc1ccc(F)cc1F)c1cnn(-c2ccc(F)cc2)c1-n1cccc1,0.6%
COc1cccc2cc(C(=O)Nc3ccc(CC(=O)O)cc3)c(=O)oc12,-0.7%
Cc1c(C(=O)NCc2cccc(Cl)c2)sc2nc[nH]c(=O)c12,0.2%
COc1ccc(C)cc1NC(=O)CC1NCCNC1=O (stereo unspecified),2.1%
Cc1ccc(C(=O)c2sc(Nc3ccc(F)cc3)c(C#N)c2N)cc1,12%
CCOc1ccccc1NC(=O)Nc1ccccc1OCc1cc(=O)n2ccccc2n1,?
CCO[C@H]1[C@H](NC(=O)c2cccnc2)c2ccccc2C12CCN(C(=O)c1ccoc1)CC2,0.3%
CCc1ccccc1NC(=O)c1nc(-c2ccncc2)no1,-1.3%
O=C(Cn1cc(C(=O)C2CCCCC2)c2ccccc21)Nc1ccccc1Cl,1.3%
CC(=O)Nc1ccccc1-c1nc2ccccc2n(CC(=O)c2ccc(Br)cc2)c1=O,0.8%
COc1ccccc1NC(=O)C1=C(C)Nc2ncnn2C1c1sccc1C (stereo unspecified),-4.2%
Cc1ccccc1CNC(=O)C(=O)NCC(c1ccco1)S(=O)(=O)c1cccs1 (stereo unspecified),0.9%
COC(=O)c1c(-c2ccc(Cl)cc2)noc1N1CCN(c2cccc(C(F)(F)F)c2)CC1,-0.6%
Cn1c(=O)n(C)c2cc(N3CCOCC3)c(NC(=O)c3ccc(C(C)(C)C)cc3)cc21,11%
CCc1cc2c(cc3c(=O)n(CC(=O)N4CCCCC4)nc(CC)n32)s1,0.1%
Cc1ccc2c(CC(=O)Nc3ccc(S(=O)(=O)N4CCC(C)CC4)cc3)coc2c1,2.1%
Cc1cccc(-c2nnc(SCC(=O)NC3CCCCC3)o2)c1,-0.6%
CCOc1ccc(CNC(=O)c2cc(=O)[nH]c3ccc(S(=O)(=O)N4CCCC4)cc23)cc1,0.8%
Cc1ccc(NC(=O)c2cc(-c3ccc(Br)s3)nc3ccccc23)cc1F,-0.2%
COc1ccc(CNC(=O)CSc2ncc3c(n2)-c2ccc(Cl)cc2N(Cc2ccccc2)S3(=O)=O)cc1,3.5%
COc1ccc(NC(=O)NCC2CCN(Cc3ccccc3F)CC2)c(OC)c1,-0.5%
OC1(c2cccnc2)CCN(Cc2ccc3c(c2)CN(Cc2cc(F)cc(F)c2)CCO3)CC1,-0.2%
COc1ccccc1OCC(=O)N1CCC(c2nc3ccccc3o2)CC1,-0.7%
Cc1cc(N2CCN(c3ccccc3F)CC2)n2cnnc2n1,-0.9%
CC(=O)c1cccc(NC(=O)c2nc3ccccc3n(C)c2=O)c1,2.6%
Cc1ccc(C)c(OCc2nc3ccccc3n2C)c1,-0.8%

# Rewritten with bars between the fields: entries from further up.
Compound | PINK1 expr mod
COc1ccc(NC(=O)NCC2CCN(Cc3ccccc3F)CC2)c(OC)c1 | -0.5%
OC1(c2cccnc2)CCN(Cc2ccc3c(c2)CN(Cc2cc(F)cc(F)c2)CCO3)CC1 | -0.2%

# Next part.
SMILES,PINK1 expr mod
CCOCCCNC(=O)Cn1ncc2c([nH]c3ccccc32)c1=O,7.0%
Cc1nn(CCC(=O)N2CCN(c3ccccc3F)CC2)c(C)c1S(=O)(=O)N1CCCC1,-0.2%
CC1(C)CC(=O)c2cc(C(=O)Nc3ccccc3)c(=O)[nH]c2C1,2.2%
Cc1c(C(=O)N2CCCC2)oc2c1-c1nn(CC(=O)NCc3ccc(OC(C)C)cc3)cc1CC2,7.8%
COc1cccc(C2C(C(=O)Nc3ccc(C)cc3C)=C(C)Nc3c(C(=O)Nc4cccc(C)c4)cnn32)c1OC (stereo unspecified),?
CN(C)c1ccc(/C=C2\C=Cc3cc(N)ccc32)cc1,0.8%
CCCCn1c(SCC(=O)c2ccccc2)nc2c(sc3ccccc32)c1=O,-1.1%
Cn1nnnc1Sc1ncnc2scc(-c3cccc(Br)c3)c12,-1.3%
Oc1c(CNc2ccccc2)cc(COCc2ccccc2)c2cccnc12,0.9%
Cc1ccc2nc(CSc3nnc(NC(=O)C(C)C)s3)cc(=O)n2c1,2.6%
O=C(CN1CCSc2ccccc21)NCc1ccccc1F,0.0%
O=c1[nH]c(SCc2ccc(F)cc2)nc2c1CCCC2,6.3%
CCOc1ccc(NC2SC(=O)N(Cc3ccccc3)C2=O)cc1 (stereo unspecified),0.5%
CCC1CCCCN1C(=O)c1nn(-c2ccc(C)cc2)c(=O)c2c1c1ccccc1n2C (stereo unspecified),3.0%
CCOC(=O)c1ccccc1NC(=O)COC(=O)CC(C)(C)CC1=NS(=O)(=O)c2ccccc2N1,2.5%

# Three entries already listed, arranged by molar mass, highest first:
SMILES,PINK1 expr mod
Oc1c(CNc2ccccc2)cc(COCc2ccccc2)c2cccnc12,0.9%
CCOc1ccc(NC2SC(=O)N(Cc3ccccc3)C2=O)cc1 (stereo unspecified),0.5%
CN(C)c1ccc(/C=C2\C=Cc3cc(N)ccc32)cc1,0.8%

# (cont.)
SMILES,PINK1 expr mod
NC(N)=Nc1ccc(/C=C2\C=Cc3ccccc32)cc1,-0.8%
Cc1ccc(CNC(=O)c2cc3cc(C)ccc3n2C)cc1,0.1%
COc1ccc(CNC(=O)c2cc(-c3cccs3)nc3ccccc23)c(OC)c1,2.4%
COc1ccc(NC(=O)CN(C)S(=O)(=O)c2ccc3[nH]c4c(c3c2)CCCC4)cc1OC,2.4%
Cc1ccc2nc(N3CCN(C(=O)C4COc5ccccc5O4)CC3)sc2c1 (stereo unspecified),1.1%
O=C(NCc1ccccc1Cl)c1cc2c(s1)-c1ccc(Cl)cc1SC2,11%
Cc1ccccc1OCC(=O)OCc1cc(=O)n2nc(-c3cccs3)sc2n1,0.0%
CN(C(=O)CCc1nc(-c2ccccc2F)no1)c1ccc(Cl)cc1,1.5%
CCOC(=O)c1c(S(=O)(=O)N2CCN(c3cccc(C(F)(F)F)c3)CC2)c(C)n(C)c1C,6.4%
O=C(Nc1ccc(F)cc1F)c1ccc2c(=O)n3c(nc2c1)CCCCC3,1.8%
CCCCc1nc2ccccc2n2c(-c3ccc(C)cc3)c3c(=O)n(C)c(=O)n(C)c3c12,1.5%
COc1cc(C(=O)NCC(c2ccc(Cl)cc2)N2CCOCC2)cc(OC)c1OC (stereo unspecified),-0.9%
CCOc1ccccc1C1CC(=O)Oc2c1c(=O)n(C)c1ccccc21 (stereo unspecified),1.0%
CCN1CCN(C(c2ccc(F)cc2)c2c(O)cc(C)n(CCOC)c2=O)CC1 (stereo unspecified),1.1%
O=C(NCCc1ccccc1)c1ccc(Cn2c(=O)c3cccn3c3cccnc32)cc1,5.1%
Cc1ccc(CN(C(=O)COc2ccccc2[N+](=O)[O-])c2ccccn2)o1,-0.2%
O=C1CCSC2(C(=O)N(Cc3ccc(F)cc3)c3ccccc32)N1c1ccc(F)c(F)c1 (stereo unspecified),11%
CCOC(=O)c1oc2ccc(S(=O)(=O)n3nc(-c4cc(OCC)c(OCC)c(OCC)c4)cc3N)cc2c1C,-1.7%
O=C(Cn1nc(-c2ccc(Cl)cc2)c2ccccc2c1=O)Nc1cccc(Br)c1,0.3%
CCOC(=O)C1CCN(C(c2ccccc2)c2c(O)cc(C)n(Cc3ccco3)c2=O)CC1 (stereo unspecified),0.7%
Cc1cn2c(=O)cc(COc3cccc(NC(=O)c4ccccc4C)c3)nc2s1,5.0%
CCN1C(C(=O)c2ccccc2)=C(OC(=O)COc2ccc(C)cc2)c2ccccc2S1(=O)=O,0.9%
Cc1cccc(NC(=O)Cn2c(=O)nc(-c3ccccc3)c3ccccc32)c1C,0.5%
COc1ccc(CCNC(=O)CN(c2ccc(C)cc2)S(=O)(=O)c2ccc(OC)cc2)cc1,-1.5%
CC(=O)N1CCc2c(sc3nc(SCC(C)C)n(-c4ccc(C)c(Cl)c4)c(=O)c23)C1,0.5%
O=C(O)CC(NS(=O)(=O)c1ccc(Cl)s1)c1ccccc1 (stereo unspecified),0.2%
COC(=O)c1c(NC(=O)COc2ccc(Cl)cc2)sc(C)c1C,3.8%
COc1ccc(C(=O)Nc2cc(C(C)C)c(O)c(S(=O)(=O)c3ccc(OC)cc3)c2C)cc1,0.8%
Cc1c(Cl)cccc1NC(=O)c1cc2sccc2n1Cc1ccc(F)cc1,15%
CCc1cc2c(cc3c(=O)n(CCCC(=O)NCc4ccccc4Cl)nc(CC)n32)s1,0.7%
Cc1nn(CC(=O)N2CCN(c3cccc(C(F)(F)F)c3)CC2)c(=O)c2cc3sccc3n12,-1.5%
CCOC(=O)c1cc(-c2ccccc2)n(CCCC(=O)Nc2ccccc2C)c1C,3.5%
O=S(=O)(Nc1ccc2nc(-c3cccc(Cl)c3)oc2c1)c1ccccc1,-1.3%
CCN(CCN(C)Cl)/[N+]([O-])=N/Oc1ccc([N+](=O)[O-])cc1[N+](=O)[O-],-1.3%
CCOc1ccccc1N1CC(c2nc3ccccc3n2Cc2c(C)cc(C)cc2C)CC1=O (stereo unspecified),0.2%
Clc1ccc2nc(-c3ccc(Br)o3)c(Nc3ccc4c(c3)OCCO4)n2c1,-2.1%
CCN(c1ncnc2c1cnn2-c1cc(Cl)ccc1C)C1CCCCC1,0.5%
CCOC(=O)COc1ccc(C)cc1C(=O)c1ccn2nc(-c3ccc(C)cc3)cc2n1,6.8%
CCOc1ccc(C(=O)CSc2nnc3cc(C)c4ccccc4n23)cc1,2.7%
COc1cc(N2C(=O)CSC23C(=O)N(C)c2ccccc23)cc(OC)c1OC (stereo unspecified),0.3%
COc1cccc(NC(=O)Cc2csc(COc3cccc(C)c3)n2)c1,2.1%
O=C(COc1ccccc1F)OCc1cc(=O)n2nc(-c3cccs3)sc2n1,2.8%
Cc1ccc(-c2cc(C(=O)Oc3ccc(C#N)cc3)no2)cc1C,0.4%
Cc1oc(-c2ccc(C(=O)NCCN(C)C)cc2)nc1CS(=O)(=O)c1ccccc1,0.1%
O=c1c2oc3ccccc3c2ncn1Cc1ccc(Br)cc1,1.8%
CCOC(=O)N1CCC(NC(=O)c2ccc3c(c2)N(Cc2ccccc2)C(=O)c2ccccc2S3(=O)=O)CC1,0.1%
CCC(C)NC(=O)c1cn(CC)c2ccc(S(=O)(=O)N3CCc4ccccc4C3)cc2c1=O (stereo unspecified),-0.2%
COc1cc2c(cc1OC)C(COc1ccc3c(C)cc(=O)oc3c1)N(C(=O)c1ccccc1C)CC2 (stereo unspecified),-0.4%
Cc1ccc(-c2noc(CNC(=O)c3ccccc3)n2)cc1,1.6%
CCOc1ccccc1NC(=O)CSc1nc2c([nH]c3ccccc32)c(=O)n1-c1ccccc1,0.6%
CC1=C(C(=O)OC2CCCCCC2)C(c2cccc(F)c2F)CC(=O)N1 (stereo unspecified),5.0%
